Screening data as filed in PubChem.
BJeLR lethal: kills HRASV12-expressing BJeLR cells | BJeLR (HRASV12) viability, CellTiter-Glo ATP luminescence, 48 h; reference of the scale not given here | inhibition, % (concentration not given with the values) | 0.17% of 300,000 active | AID 1554;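 active = replicate mean above 50%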;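 also: 50 nL library stock added to about 25 µL; numbers are from one replicate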
RN4220 kill: kills Staphylococcus aureus RN4220 | S. aureus RN4220 growth, OD600, 16 h | 0.33% of 330,000 active | inhibition, % (concentration not given with the values);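 active = z-score of -3 or lower and OD600 up to 0.18 on both plates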;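 also: plate controls were untreated cells for no effect and reference antibiotic for full effect; stock transfer was 100 nL into about 80 µL; one replicate is shown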
PrP UTR inh: inhibition of PrP 5' UTR reporter expression. 0.35% of 340,000 active. inhibition, % (concentration not given with the values). cell-based PrP 5' UTR mRNA reporter, plate reader;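 active = every replicate at 50% or more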;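 also: 0 = median of the neutral control wells; tested in H4 reporter cells; numbers are from one replicate; inactives centre near -14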
Mtb hypoxia inh: Mtb hypoxia fluorescent reporter inhibition; fluorescence inhibition, % (test concentration not listed); M. tuberculosis hypoxia-regulated fluorescent reporter, fluorescence; AID 1159583; 0.1% of 300,000 active;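 active = 35 to 45% if threefold the growth effect, above 45% if 1.5-fold the growth effect; inactive = the rest, general growth blockers included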;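 also: wells of about 50 µL received 100 nL stock; 0% = vehicle wells and 100% = reference inhibitor wells; whole bacteria with a GFP reporter of the hypoxia response; strong numbers were not always called active; many hits fall short of the cut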
Sa ugtP lethal: growth inhibition of S. aureus ugtP deletion strain; S. aureus RN4220 ugtP deletion, OD600 growth, 16 h; some inactives read as strong as hits; growth inhibition, % (test concentration not listed); 0.54% of 330,000 active; AID 1259309;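 active = z-score under -3 and OD600 up to 0.15 on both plates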;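 also: plate controls were untreated wells for no effect and antibiotic for full effect; wells of about 80 µL received 100 nL stock; the first replicate is given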
Autofluor counter: counter-screen for toxin protease inhibitors: compound fluorescence; compound autofluorescence counterscreen, microsphere flow cytometry; active compounds read high; fluorescence intensity (concentration not given with the values); 3.1% of 360,000 active;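 active = at least 3 SD above the mean of all compounds, about 16000 in these data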;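 also: 100 nL of 1 mM stock went into each well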
Mtb hypoxia inh growth: also measured in Mtb hypoxia inh; calls as there; growth inhibition, %; measured here: M. tuberculosis growth (absorbance);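 0% = vehicle and 100% = reference antibiotic; read after six days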
Numbers without * were called inactive; · = not tested or not shown.

SMILES	BJeLR lethal	RN4220 kill	PrP UTR inh	Mtb hypoxia inh	Mtb hypoxia inh growth	Sa ugtP lethal	Autofluor counter
Cc1ccccc1NC1=C(Cl)C(=O)OC1NC(=O)c1ccccc1 (stereo not drawn)	7.0	3.3	-13.7	20.9	13.8	8.1	10810
Cc1cc(C)c2sc(NC(=O)C3CC3)nc2c1	-2.4	-11.8	22.6	5.5	14.1	-13.2	6113
Cc1cccc(N(CC(=O)N2CCN(C)CC2)S(=O)(=O)c2ccccc2)c1	10.2	7.1	-32.5	14.3	10.0	3.4	4668
Cc1c(OCC(=O)C(C)(C)C)ccc2c3c(c(=O)oc12)CCCC3	-11.1	7.2	-12.0	6.4	25.4	9.6	4197
Cc1c(Br)cc(C(=O)NCCCN2CCOCC2)c(C)c1C	-0.5	8.7	-13.4	5.6	1.0	2.4	2983
CCOc1ccc(CNC23CN4CN(CN(C4)C2)C3)cc1	-1.5	4.4	-3.4	12.9	5.5	1.8	9839
O=C(NCCN1CCOCC1)c1ccc(Cl)c(S(=O)(=O)NCc2ccccc2)c1	·	-1.7	13.2	1.5	1.1	1.1	·
CCC(CC)C(=O)Nc1cccc(C(=O)N2CCCCCC2)c1	-5.4	4.8	-23.5	5.7	5.5	7.1	4525
Cc1ccc(S(=O)(=O)c2cc3c(=O)n4ccccc4nc3n(CC3CCCO3)c2=N)cc1C (stereo not drawn)	-0.3	2.6	7.8	2.5	-4.4	3.6	2557
CCCNC(=O)COc1ccc2c(=O)c(Oc3ccccc3F)coc2c1	6.4	1.6	-14.8	4.2	9.7	5.3	2409
Cc1cccc(NC(=O)CCNC(=O)c2ccc(Br)cc2)c1	3.2	5.3	-59.3	6.8	-1.8	13.4	3862
COc1ccc(OC)c(C=NNC(=O)C(=O)N2CCCCCC2)c1	·	-3.1	·	-7.6	1.9	-2.8	·
CCOC(=O)Cn1c(=O)c(-c2ccccc2NC)nc2ccccc21	2.4	2.8	-8.2	·	·	3.8	2314
O=C(O)C1C2CCC(O2)C1C(=O)NCc1ccc(Cl)cc1 (stereo not drawn)	-0.8	3.0	-19.0	2.4	10.0	0.5	1972
CSCCC(NC(=O)C1CCC(C)CC1)C(=O)N1CCN(c2ccccn2)CC1 (stereo not drawn)	2.5	-1.1	-17.2	-6.9	13.4	0.3	9459
COC(=O)C(C(=O)Nc1cccc(C)n1)C1CCCCCC1 (stereo not drawn)	12.3	2.7	-7.2	·	·	8.5	3509
CSCC[C@H](NC(=O)c1cccc([N+](=O)[O-])c1C)c1nc2ccccc2[nH]1	-4.6	4.8	-37.2	-1.7	-13.3	-13.0	2378
COc1cc(C(=O)Nc2cccc(-c3cn4cccnc4n3)c2)cc(OC)c1OC	-5.1	5.2	42.6	7.2	6.6	-52.8	4135
CC(=NOC(=O)c1cccc(C(F)(F)F)c1)c1cnccn1	·	4.6	·	6.6	1.1	18.7	·
COc1ccc(CN2CCCC(C(=O)c3cccc(OC(C)C)c3)C2)cc1Cn1cccn1 (stereo not drawn)	-0.8	1.8	·	0.9	19.2	6.0	4046
CN1C(=O)/C(=C2\SC(=S)N(CCCCCC(=O)O)C2=O)c2ccccc21	8.3	·	-15.1	·	·	·	4642
COc1ccccc1CNC(=O)c1cnc2ccccn2c1=O	-7.3	0.0	-46.6	-3.3	2.8	-7.6	6685
Cc1ccc(NC(=O)c2cnn(-c3ccccc3)c2C)cc1	-1.8	1.1	-40.5	10.7	5.5	2.1	3349
O=C(c1cccc(Cl)c1)N1CCC(C(=O)N2CCN(Cc3ccccc3)CC2)CC1	3.5	3.1	-14.2	5.6	4.9	5.8	5285
CCCCCCC(=O)Nc1nc(C)c(-c2csc(Nc3cccc(OC)c3)n2)s1	1.8	-15.4	-10.2	3.9	-5.4	14.7	3715
COCCCN1C(=O)C(=O)C(=C(O)c2ccc(OC(C)C)cc2)C1c1ccc(O)c(OC)c1 (stereo not drawn)	·	4.1	·	9.4	6.3	-0.1	·
CCOC(=O)c1cc(C(C)(C)C)n(CCCN2CCOCC2)c1C	1.5	0.3	-18.6	-0.8	7.3	1.5	5575
COc1ccc(C(=O)NC2CCCc3c2cnn3-c2cc(F)cc(F)c2)c(OC)n1 (stereo not drawn)	11.4	8.0	7.7	2.9	12.2	2.8	5956
Cc1csc(N(C(=O)c2cccc(S(=O)(=O)N(C)C)c2)c2ccccc2)n1	1.8	9.9	6.3	6.6	-2.5	18.2	6829
Cc1ccc(C(=O)Nc2ccc(S(=O)(=O)NC3=NCCCCC3)cc2)c(C)c1	-11.7	-3.2	-16.7	6.0	1.5	6.6	5817
Cc1ccc(N2C(=O)c3ccccc3NC2(C(=O)O)c2ccccc2)cc1Cl (stereo not drawn)	-1.1	-1.6	-29.1	2.0	6.6	2.7	3546
Cn1c(=O)cc(N)n(-c2ccccc2)c1=O	-1.8	1.1	-23.8	3.8	-1.3	-2.8	4148
COc1cccc(OC)c1C(=O)NCCc1ccccc1	-3.8	4.4	-3.3	6.4	14.9	7.8	4408
N#CCC(=O)N/N=C/c1ccc(Cl)cc1	-3.9	·	-26.4	·	·	·	6089
COc1cnc(-c2ccccc2)nc1Oc1ccc(C(C)(C)C)cc1	3.6	-15.7	-18.4	8.0	-1.4	82.4	8501
CC1CCCN(C(=O)CCCC(=O)N2CCCC(C)C2)C1 (stereo not drawn)	3.9	1.6	-30.4	7.3	-7.4	3.2	5247
COc1cccc(Oc2cncnc2-c2ccc(OC)cc2O)c1	5.2	-0.1	-5.0	10.0	5.1	-4.7	4332
CCN(CC)S(=O)(=O)c1ccc(=O)n(CC(=O)N2Cc3ccccc3CC2C(N)=O)c1 (stereo not drawn)	·	4.6	-8.1	-2.4	-6.9	10.5	6068
Cc1ccccc1-n1c(SCc2ccccn2)nc2n[nH]c(C)c2c1=N	-1.5	-0.4	-13.9	·	·	-10.0	2650
Cc1cc(=O)oc2cc(OCC(=O)OCC(=O)Nc3ccccc3C(C)C)ccc12	-9.0	-7.6	-11.3	-9.7	0.6	-3.4	7152
CCn1cc(CNC(=O)c2ccc3nc(Cc4ccc(OC)cc4)oc3c2)cn1	9.5	-5.3	-11.2	-8.5	2.4	-1.0	5525
COc1cc2ccccc2cc1C(=O)Nc1ccc(NC(=O)c2cccs2)cc1	7.8	5.0	-24.3	5.4	3.6	3.9	3748
Cc1ccc(NC(=O)CCC(C(=O)O)N2C(=O)c3ccccc3C2=O)cc1 (stereo not drawn)	-8.3	8.2	-20.0	11.5	4.1	-3.5	3389
Cc1ccccc1N1C(=O)CC2(CCCC2)CC1=O	4.5	0.7	81.7*	14.1	-2.2	3.2	4415
Cc1csc2nc(NC(=O)c3ccccc3)sc(=O)c12	5.9	10.8	-40.0	7.5	9.5	-4.4	6098

One compound at a time (already shown).
Profile of `COc1cc2ccccc2cc1C(=O)Nc1ccc(NC(=O)c2cccs2)cc1` = BJeLR lethal = 7.8; RN4220 kill = 5.0; PrP UTR inh = -24.3; Mtb hypoxia inh = 5.4; Mtb hypoxia inh growth = 3.6; Sa ugtP lethal = 3.9; Autofluor counter = 3748
Profile of `CC1CCCN(C(=O)CCCC(=O)N2CCCC(C)C2)C1` (stereo not drawn) = BJeLR lethal = 3.9; RN4220 kill = 1.6; PrP UTR inh = -30.4; Mtb hypoxia inh = 7.3; Mtb hypoxia inh growth = -7.4; Sa ugtP lethal = 3.2; Autofluor counter = 5247

(cont.)
SMILES	BJeLR lethal	RN4220 kill	PrP UTR inh	Mtb hypoxia inh	Mtb hypoxia inh growth	Sa ugtP lethal	Autofluor counter
NC(=O)c1nsc(C(=O)N(c2ccccc2)C(C(=O)NC2CCCC2)c2ccc3ncccc3c2)c1N (stereo not drawn)	9.6	5.0	-30.5	11.1	-2.3	14.8	3410
O=C1NC(=O)C2(Cc3cc([N+](=O)[O-])ccc3N3CCN(C(=O)c4ccccc4)CC32)C(=O)N1 (stereo not drawn)	3.8	2.7	-9.3	-0.1	1.0	-1.7	3447
COc1cc(CN2CCCCC2)ccc1OCc1ccccc1	-13.5	0.3	-30.7	7.3	7.5	5.5	4315
Nc1cccnc1Sc1ccc([N+](=O)[O-])cn1	-5.6	4.2	-19.0	7.3	0.9	11.7	1982
Cc1c(NC(=O)C(C)OC(=O)COc2ccccc2)c(=O)n(-c2ccccc2)n1C (stereo not drawn)	4.3	0.6	-15.5	-8.4	-11.9	2.7	4482
COC(=O)[C@]1(Cc2ccccc2)NC(c2ccc(-c3ccc4c(c3)OCO4)cc2)C2C(=O)N(C)C(=O)C21 (stereo partly drawn)	·	3.8	·	-0.7	9.1	4.4	·
O=C(NC1CCCCC1)C(c1ccc(F)cc1)N(Cc1ccco1)C(=O)Cn1nnc2ccccc21 (stereo not drawn)	22.3	3.3	-45.2	12.0	5.1	-6.3	18842*
O=C(Nc1ccccc1)OCC1COC(c2ccccc2)(c2ccccc2)O1 (stereo not drawn)	·	4.8	-25.0	7.5	4.3	8.4	3865
OCCCNc1ncnc2sc(-c3ccccc3)cc12	17.0	·	-4.0	·	·	·	3306
COC(=O)c1ccc(NC(=O)CCS(=O)(=O)c2ccc3c(c2)NC(=O)C(C)S3)cc1 (stereo not drawn)	-5.3	6.6	-20.1	-9.7	1.0	-1.6	5332
CC(CC(=O)Nc1ccccc1C)=NNC(=O)Cc1csc(N)n1	·	0.9	·	0.7	-0.8	1.8	·
O=C(CSC1c2ccccc2-c2ccccc21)NN=Cc1ccc(C(=O)O)cc1	·	2.5	·	9.4	2.8	7.0	·

Some entries already given, showing only Mtb hypoxia inh and PrP UTR inh.
compound | Mtb hypoxia inh | PrP UTR inh
OCCCNc1ncnc2sc(-c3ccccc3)cc12 | · | -4.0
COC(=O)c1ccc(NC(=O)CCS(=O)(=O)c2ccc3c(c2)NC(=O)C(C)S3)cc1 (stereo not drawn) | -9.7 | -20.1

Not a retest: an excerpt of the list.
SMILES	BJeLR lethal	RN4220 kill	PrP UTR inh	Mtb hypoxia inh	Mtb hypoxia inh growth	Sa ugtP lethal	Autofluor counter
Cc1ccccc1NC1=C(Cl)C(=O)OC1NC(=O)c1ccccc1 (stereo not drawn)	7.0	3.3	-13.7	20.9	13.8	8.1	10810
Cc1cc(C)c2sc(NC(=O)C3CC3)nc2c1	-2.4	-11.8	22.6	5.5	14.1	-13.2	6113
Cc1cccc(N(CC(=O)N2CCN(C)CC2)S(=O)(=O)c2ccccc2)c1	10.2	7.1	-32.5	14.3	10.0	3.4	4668
Cc1c(OCC(=O)C(C)(C)C)ccc2c3c(c(=O)oc12)CCCC3	-11.1	7.2	-12.0	6.4	25.4	9.6	4197
Cc1c(Br)cc(C(=O)NCCCN2CCOCC2)c(C)c1C	-0.5	8.7	-13.4	5.6	1.0	2.4	2983
CCOc1ccc(CNC23CN4CN(CN(C4)C2)C3)cc1	-1.5	4.4	-3.4	12.9	5.5	1.8	9839
O=C(NCCN1CCOCC1)c1ccc(Cl)c(S(=O)(=O)NCc2ccccc2)c1	·	-1.7	13.2	1.5	1.1	1.1	·
